# Autofluor counter: counter-screen for toxin protease inhibitors: compound fluorescence. compound autofluorescence counterscreen, microsphere flow cytometry; stronger effect = higher value. fluorescence intensity (no concentration beside the values). 360,000 tested, 3.1% active. AID 624483;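 active means at least 3 SD above the mean of all compounds, about 16000 in these data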;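 further: 100 nL of 1 mM stock went into each well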
# * = called active by the depositor. Not all compounds are listed, so the mix of outcomes need not match the whole.
SMILES,Autofluor counter
COc1ccccc1Cc1c(-c2cccc(Br)c2)nc2ccc(Cl)cn12,12658
CC(C)CC(N)c1csc(NC(=O)C(c2ccccc2)c2ccccc2)n1 (stereo unspecified),4141
CN1C(=O)c2ccccc2CC12c1ccccc1C(=O)N2C (stereo unspecified),3480
COC(=O)[C@@]1(C(C)C)N=C(c2cc(OC)c(OC)c(OC)c2)[C@]2(O1)C(=O)N(Cc1ccc(OC)cc1)c1ccc(Br)cc12,5643
Cc1noc(C)c1NC(=O)N(C)C[C@H]1OCCCC[C@@H](C)Oc2ccc(NC(=O)Nc3ccc(F)cc3)cc2C(=O)N([C@@H](C)CO)C[C@H]1C,3594
COc1ccc(Br)cc1C=NNS(=O)(=O)c1ccc(C)cc1,4039
CC1(C(=O)NS(=O)(=O)c2ccccc2OC(F)(F)F)CCN1C(=O)Cc1ccccc1 (stereo unspecified),2951
OCC1OC(n2cnc3c(N4CCCC4)ncnc32)C(O)C1O (stereo unspecified),3884
O=C1C=CC(n2cc(F)c(=O)[nH]c2=O)O1 (stereo unspecified),3011
C#CCN(C[C@@H]1[C@@H](OC(=O)NC2CCCC2)[C@@H](OC(=O)NC2CCCC2)CN(C(=O)OC(C)C)N1C(=O)OC(C)C)S(=O)(=O)c1ccc(C)cc1,3765
CCCNC(=O)C1(C)CCCN(C(=O)c2ccc(OC)cc2OC)C1 (stereo unspecified),2996
COc1ccccc1S(=O)(=O)N(C)C[C@H]1OCc2cnnn2CCCC(=O)N([C@H](C)CO)C[C@H]1C,3465
CC(C)CN1Cc2ccccc2-n2nncc2C1,3448
COc1ccccc1C(=O)NCC(=O)N(C)Cc1nc2ccccc2c(=O)[nH]1,3936
O=C(Nc1ccc(C(=O)O)cc1)/C(=C\c1ccc([N+](=O)[O-])cc1)NC(=O)c1ccco1,3615
COc1ccc(S(=O)(=O)N(C)C[C@H]2OCCCC[C@@H](C)Oc3ccc(N(C)C)cc3C(=O)N([C@H](C)CO)C[C@@H]2C)cc1,3578
Cc1cc(C)n2c(NCc3ccccc3)c(CC(C)C)nc2n1,6802
COC(=O)c1cn(C(=O)c2ccc3c(c2)OCO3)c2ccccc12,3986
CCOC(=O)[C@]12Cc3cc(OC)ccc3[C@H]1N(C(C)C)C(=O)c1cc(OC)ccc12,5743
O=C(NC1CCCCC1)C(C1CC1)N1CCc2ccccc2C1 (stereo unspecified),5866
CC(=O)NC(c1ccccc1)c1nc(-c2ccc(Cl)cc2)cs1 (stereo unspecified),2956
CC(C)(C)c1ccc(S(=O)(=O)NC(=O)C2(C)CCN2C(=O)Cc2ccc(Cl)cc2Cl)cc1 (stereo unspecified),3129
CCC(=O)N1Cc2cc(C(=O)Nc3nccs3)nc(-c3cccc(-c4ccccc4OC)c3)c2[C@H]1CCO,5727
CC(C)NC(=O)c1cc(C2CCCCN2C(=O)c2ccccc2)on1 (stereo unspecified),3606
COC(=O)c1ccc2nc(-c3ccco3)c(Cc3ccc(C)cc3)n2c1,5707
C[C@@H]1CN([C@@H](C)CO)C(=O)CCCn2nncc2CO[C@H]1CN(C)Cc1cccc2c1OCCCO2,3460
CCNC(=O)C1(C)CCN(C(=O)c2ccc(OC)cc2)C1 (stereo unspecified),3733
COc1ccc(CC(N)c2csc(Nc3ccc(C(=O)c4ccccc4)cc3)n2)cc1 (stereo unspecified),2936
COc1cccc(C(O)c2nc(-c3cccc(C(C)C)c3)cs2)c1 (stereo unspecified),3136
CCCNC(=O)c1cc(C2CCCCN2C(=O)CCc2ccccc2)on1 (stereo unspecified),3896
O=c1c2ccccc2oc2ccccc12,5470
CS(=O)(=O)Nc1cccc(NC(=O)c2ccc(-c3ccc(F)c(F)c3)c3ccoc23)c1,3368
Cc1cccc(NC(=O)CNC(=O)[C@H]2O[C@@H](n3ccc(=O)[nH]c3=O)[C@H](O)[C@@H]2O)c1C,5561
CCc1nc2ccc(C(=O)Nc3ccc4c(c3)OCC(=O)N4)cn2c1N(C)C(=O)Cc1ccccc1,3604
OC(Cc1cccc(Br)c1)c1ncc(-c2ccccc2C(F)(F)F)[nH]1 (stereo unspecified),3897
CCCCN(C)C(=O)c1ccc(Nc2nc(C(N)Cc3ccc(C(F)(F)F)cc3)cs2)nc1 (stereo unspecified),3653
Cc1ccc(OCC(=O)NNC(=O)c2cc(S(=O)(=O)N(C)C)ccc2N2CCCC2)cc1,3815
COc1ccc(C(O)c2nc(-c3ccc(C)c(C)c3)cs2)cc1 (stereo unspecified),3896
C[C@H]1CN(c2ccc(Br)cc2)C(=O)[C@@H]1CC(=O)Nc1ccc(Br)cc1,3751
O=C(Nc1ccc2c(c1)OCO2)c1cc(C2CCCCN2C(=O)c2ccccc2)on1 (stereo unspecified),3625
COc1cc(CN2C[C@@H](CO)O[C@@H](n3cnc4c(N(C)C)ncnc43)C2)cc(OC)c1OC,3245
OC[C@@H]1CN(Cc2cccs2)C[C@H](n2cnc3c(N4CCN(c5ccccc5)CC4)ncnc32)O1,3900
COc1ccccc1CNC(=O)C1(C)CCCCN1C (stereo unspecified),3365
O=S1(=O)C[C@H](N2CCCC2)[C@@H](COCc2ccccc2)N1,4903
C=Cc1ccc(CC2(C)C(=O)Nc3c(Cl)cccc32)cc1 (stereo unspecified),3662
COc1cccc(NC(=O)C2(C)CCCN2C(=O)C(C)C)c1OC (stereo unspecified),3721
O=C(NCc1ccc(F)cc1)c1cc(C2CCCCN2S(=O)(=O)Cc2ccccc2)on1 (stereo unspecified),3620
COc1ccc(CNC(=O)c2ccc(-c3c(C)noc3C)c3ccoc23)cc1OC,3583

# 3 records picked at random from those above, as already listed:
SMILES,Autofluor counter
COc1ccccc1S(=O)(=O)N(C)C[C@H]1OCc2cnnn2CCCC(=O)N([C@H](C)CO)C[C@H]1C,3465
COC(=O)c1cn(C(=O)c2ccc3c(c2)OCO3)c2ccccc12,3986
CN1C(=O)c2ccccc2CC12c1ccccc1C(=O)N2C (stereo unspecified),3480

# Continued:
SMILES,Autofluor counter
CC(C)(C(=O)N1CCC1(C)C(=O)NS(=O)(=O)c1cccc(C#N)c1)c1ccccc1 (stereo unspecified),3829
COc1cccc(C2=Cc3ccc(F)cc3C(CC(C)=O)N2c2ccc(C#CC3(O)CCCCC3)cc2)c1 (stereo unspecified),5149
Cc1cc(C(=O)N2CCC2(C)C(=O)Nc2cc(C(C)(C)C)nn2C)nn1C (stereo unspecified),3403
O=S(=O)(c1cnccc1N1CCN(CCO)CC1)N1CCCC1,2923
COc1ccc(-c2ccc(C(=O)NCC(C)C)c3occc23)c(C)c1,3416
N#CC1C(=O)NC(=O)C(C#N)C12CCCC2 (stereo unspecified),5926
CCCCNC(=O)C1(C)CCN1C(=O)c1ccccc1Br (stereo unspecified),3432
O=C(Nc1nnc([C@@H]2C[C@H](O)[C@@H](CO)O2)s1)NC(c1ccccc1)c1ccccc1,3637
COCCNC(=O)c1ccc(N2CC3CC(C2)c2cccc(=O)n2C3)c(NC(=O)c2ccc(C(C)(C)C)cc2)c1 (stereo unspecified),3535
C=CCN1CCN(c2ccncc2S(=O)(=O)N2CCN(C)CC2)CC1,2839
O=c1[nH]c(SCCc2ccccc2)nc2c1CCC2,3035
Cc1noc(C)c1S(=O)(=O)N(C)C[C@H]1OCCCC[C@@H](C)Oc2ccc(NS(=O)(=O)c3cn(C)cn3)cc2C(=O)N([C@H](C)CO)C[C@@H]1C,3758

# As entered above:
# Result of `COC(=O)c1ccc2nc(-c3ccco3)c(Cc3ccc(C)cc3)n2c1` under Autofluor counter: 5707
# Result of `COc1ccc(S(=O)(=O)N(C)C[C@H]2OCCCC[C@@H](C)Oc3ccc(N(C)C)cc3C(=O)N([C@H](C)CO)C[C@@H]2C)cc1` under Autofluor counter: 3578
# Result of `COc1ccc(-c2ccc(C(=O)NCC(C)C)c3occc23)c(C)c1` under Autofluor counter: 3416

# Next section
SMILES,Autofluor counter
COc1cccc(C=C(C#N)C(=O)c2ccccc2)c1,5609
CC(=O)Nc1cccc(OCc2ccc([N+](=O)[O-])cc2)c1,3522
CC(C(=O)N1CCCC1)N(c1ccc(Cl)cc1)S(C)(=O)=O (stereo unspecified),3013
Cc1cccc(S(=O)(=O)NC(=O)C2(C)CCN2C(=O)c2c(C)noc2C)c1 (stereo unspecified),2845
O=C(/C=C/[C@H]1O[C@@H](n2ccc(=O)[nH]c2=O)[C@H](O)[C@@H]1O)N[C@@H](Cc1ccccc1)C(=O)O,5644
Cc1cccc(C)c1-n1nnnc1C(c1ccnc2ccccc12)N1CCN(CCN(C)C)CC1 (stereo unspecified),6479
Cc1ccc2c(c1)CCO[C@@]21O[C@H](CCO)C[C@H](O)[C@H]1O,3835
Nc1ccc(CC(N)c2csc(Nc3cc(Oc4ccccc4)ncn3)n2)cc1 (stereo unspecified),3528
CCCCNC(=O)C1(C)CCN1Cc1ccc(C(=O)OCC)cc1 (stereo unspecified),2924
Cc1ccc([C@H]2N[C@]3(CCCN(Cc4ccccc4)C3=O)[C@H]3C(=O)N(Cc4ccccc4)C(=O)[C@@H]23)cc1,3771
COCCN1C(=O)CCC1(C)C(=O)NC1CCCC1 (stereo unspecified),5809
COC(=O)c1c(-c2ccccc2)[nH]c(-c2nccc3ccccc23)c1C(=O)OC,2985
CC(C)N1CCCC(C)(C(=O)Nc2cccc(Oc3ccccc3)c2)C1 (stereo unspecified),3895
CN(CC(=O)Nc1ccc(Cl)cc1)C(=O)CN1C(=O)C2CCCCC2C1=O (stereo unspecified),3874
COCCNc1nc(NCCOC)c2sc(-c3ccccc3)cc2n1,3830
Cc1nc2c(OCCN3C(=O)c4ccccc4C3=O)cccn2c1N(C)C(=O)CCC1CCCC1,4098
COC(=O)c1ccc2nc(-c3cccc(Cl)c3)c(Cc3cccc(Cl)c3)n2c1,7094
CCN(CC)C(=O)C1=C(C)N(CCC2=CCCCC2)C(=O)C(CC(=O)NCc2cccc3ccccc23)C1 (stereo unspecified),3469
CC(C)(C)c1ccc(CC(=O)N2CCC2(C)C(=O)Nc2cccc3cccnc23)cc1 (stereo unspecified),3904
C[C@H](CO)N1C[C@H](C)[C@H](CN(C)C(=O)Nc2cccc(C(F)(F)F)c2)OCc2cnnn2CCCC1=O,4030
COc1ccc(OC)c(C(=O)CSc2nnc(C3CC3)n2C2CC2)c1,3008
O=C(Nc1ccc(OC(F)(F)F)cc1)c1cc(S(=O)(=O)N2CCCCC2)ccc1N1CCOCC1,4167
CCOc1ccc(-c2cc(C(=O)Nc3cccc(C(F)(F)F)c3)[nH]n2)c(C)c1,4084
COc1ccc(Cn2c(=O)oc3ccccc32)cc1,2891
COc1ccc(CSC(=S)NNc2ccccc2)cc1,4029
Cc1cccc(C)c1NC(=O)CN1CCN(C(=O)CNC(=O)Cc2cccc3ccccc23)CC1,4033
O=C(Nc1cccc(C(=O)O)c1)/C(=C\c1ccccc1)NC(=O)c1ccc(Br)o1,3682
COc1ccc(-c2cc(NC(C)=O)c3ncc(-c4ccc(OC)c(OC)c4)n3c2)c(OC)c1,3928
O=C1Cc2cc(S(=O)(=O)N3CCN(c4ccc(O)cc4)CC3)ccc2N1,3745
CC1(C(=O)Nc2cccc(OC(F)(F)F)c2)Cc2c(-c3cccc(C(N)=O)c3)ccnc2O1 (stereo unspecified),3160
CCOC(=O)C1=CCC(c2ccc(Cl)cc2)N(S(=O)(=O)c2ccc(C)cc2)C1 (stereo unspecified),4149
Cc1cc(Cl)ccc1N(CC(=O)N(C)Cc1ccccc1)S(C)(=O)=O,3859
CC(=O)c1cccc(NC(=O)c2cc(S(=O)(=O)N3CCCCC3)ccc2N2CCOCC2)c1,3813
NC(COCc1ccccc1)c1csc(Nc2nncc3ccccc23)n1 (stereo unspecified),3275
C=CCC[C@@H](CCCCC)OC(=O)/C=C/[C@@H](O)[C@H](O)C[C@@H](O)CC=C,4449
CC(=O)Nc1ccc(-c2ccnc3c2CC(C)(C(=O)Nc2ccc4c(c2)OCO4)O3)cc1 (stereo unspecified),3039

# Rewritten as tab-separated lines: part of the list above.
mol	Autofluor counter
COc1ccc(-c2cc(NC(C)=O)c3ncc(-c4ccc(OC)c(OC)c4)n3c2)c(OC)c1	3928
O=C1Cc2cc(S(=O)(=O)N3CCN(c4ccc(O)cc4)CC3)ccc2N1	3745
CC1(C(=O)Nc2cccc(OC(F)(F)F)c2)Cc2c(-c3cccc(C(N)=O)c3)ccnc2O1 (stereo unspecified)	3160
CCOC(=O)C1=CCC(c2ccc(Cl)cc2)N(S(=O)(=O)c2ccc(C)cc2)C1 (stereo unspecified)	4149
Cc1cc(Cl)ccc1N(CC(=O)N(C)Cc1ccccc1)S(C)(=O)=O	3859
CC(=O)c1cccc(NC(=O)c2cc(S(=O)(=O)N3CCCCC3)ccc2N2CCOCC2)c1	3813

# An excerpt of these results, with each value named.
CCOC(=O)C1=CCC(c2ccc(Cl)cc2)N(S(=O)(=O)c2ccc(C)cc2)C1 (stereo unspecified)
  Autofluor counter: 4149
Cc1cc(Cl)ccc1N(CC(=O)N(C)Cc1ccccc1)S(C)(=O)=O
  Autofluor counter: 3859

# (next part)
SMILES,Autofluor counter
COc1ccc(NC(=O)C2Cc3c(-c4cccc(F)c4)ccnc3O2)cn1 (stereo unspecified),3440
CC(=O)Nc1ccc(-c2ccnc3c2CC(C)(C(=O)Nc2cccc(C(C)=O)c2)O3)cc1 (stereo unspecified),3587
CCn1cc(/C=C(\NC(=O)c2ccccc2OC)C(=O)NCCN2CCOCC2)c2ccccc21,2941
COc1ccc(S(=O)(=O)NC(=O)C2(C)CCN2C(=O)c2ccccc2CCc2ccccc2)cc1 (stereo unspecified),3966
C[C@H]1CN([C@@H](C)CO)C(=O)CCCn2nncc2CO[C@H]1CN(C)C(=O)C1CC1,3158
COc1ccc(-c2nc3c(Cl)cc(C(F)(F)F)cn3c2Cc2ccccc2C(F)(F)F)cc1OC,4545
CCOC(=O)C(C)N1c2cccc3cccc(c23)S1(=O)=O (stereo unspecified),3680
CC1(C(=O)NS(=O)(=O)c2cccc(F)c2)CCN1C(=O)Cc1cc(F)ccc1F (stereo unspecified),3885
N#Cc1ccc(C(=O)Nc2cc(S(=O)(=O)N3CCOCC3)ccc2N2CCOCC2)cc1,3798
C[C@@H]1CN([C@@H](C)CO)C(=O)CCCn2nncc2CO[C@H]1CN(C)C(=O)Nc1ccc(F)cc1,3844
CNC[C@H]1Oc2cc(Br)ccc2S(=O)(=O)N([C@H](C)CO)C[C@H]1C,3981
COC(=O)N(C)C[C@@H]1OCc2cnnn2CCCC(=O)N([C@@H](C)CO)C[C@H]1C,3090

# Compound activity (PubChem BioAssay)
